VDR inhibitor – inhibitors of human vitamin D receptor | VDR-SRC2-3 peptide fluorescence polarization, 2 h | Potency, µM, for inactives: max response, negative = inhibition, hits mostly inhibitors | hit rate 0.93% among 400,000; active means well fitted inhibition curve with a large enough effect; inconclusive means small, poorly fitted or top-dose-only effect, or another doubt; inactive means no such curve, though single readings can be large or run the other way; further: series mostly up to about 120 µM
Target sequence (P11473 whole entry, looked up): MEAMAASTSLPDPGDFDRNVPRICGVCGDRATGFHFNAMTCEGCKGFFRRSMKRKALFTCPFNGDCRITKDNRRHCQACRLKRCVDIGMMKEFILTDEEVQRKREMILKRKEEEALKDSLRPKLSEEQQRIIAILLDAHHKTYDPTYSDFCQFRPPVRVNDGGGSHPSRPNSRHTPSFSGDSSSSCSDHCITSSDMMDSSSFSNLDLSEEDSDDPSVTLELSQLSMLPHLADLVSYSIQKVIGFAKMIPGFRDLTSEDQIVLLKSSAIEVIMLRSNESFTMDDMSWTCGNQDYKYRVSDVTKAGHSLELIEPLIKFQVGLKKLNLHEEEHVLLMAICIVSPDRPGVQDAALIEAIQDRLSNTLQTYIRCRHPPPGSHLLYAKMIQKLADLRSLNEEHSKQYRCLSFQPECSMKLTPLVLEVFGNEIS
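Fluorescence polarization assay of small-molecule disruption of VDR binding to coregulator peptide SRC2-3. Compounds and controls pin-transferred, then read after 2 h incubation at ambient room temperature.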
The depositor's hits bear a star; ? = inconclusive; & = joins results of further samples. On the % scale 0 is the no-effect control and ±100 the full control effect; potency means the concentration at half of the fitted maximal effect. Some of the compounds tested. The share of hits here may be higher or lower than overall.

molecule,VDR inhibitor
O=C(CCNS(=O)(=O)c1ccc2c(c1)CCCC(=O)N2)Nc1cccc(Cl)c1,5.0%
COCc1cc(=O)[nH]c2cc(NC(=O)C(F)(F)F)c(C)cc12,7.3%
O=C(COc1ccccc1)NCc1ccccc1,0.5%
CN(Cc1ccccc1)C(=O)C1CCN(S(=O)(=O)c2cccc3nonc23)CC1,2.0%
O=C(CS(=O)(=O)Cc1ccccc1)Nc1nnc(C2CCCCC2)s1,10.4%
CC1=C(C(=O)Nc2ccccc2)C(c2cc(Br)ccc2F)n2ncc(C(=O)Nc3ccccc3)c2N1 (stereo not given),12.6%
NS(=O)(=O)c1cccc(NC(=O)CSc2nc3nc(-c4cccs4)cc(C(F)(F)F)c3c(=O)[nH]2)c1,-13.9%
CC(C)CCOP(=O)(c1ccc(N(C)C)cc1)C(O)c1ccccn1 (stereo not given),-7.7%
O=S(=O)(c1ccc(S(=O)(=O)N(Cc2ccco2)Cc2ccccc2Cl)cc1)N1CCCC1,-1.7%
COC(=O)c1ccc(OCCCCN(C)Cc2ccccc2)cc1,-1.0%
Cc1cc(=O)[nH]c2c1c(C)nn2C1CCCC1,-9.6%
COc1ccc(NC(=O)/C(=C\c2ccc(OS(=O)(=O)c3ccc(C)cc3)cc2)NC(=O)c2ccccc2)cc1,16.5%
CN1CCc2nc(NC(=O)c3cccc(S(=O)(=O)N4CCc5ccccc54)c3)sc2C1,-17.1%
CCN(CC(=O)Nc1ccc(NC(C)=O)cc1)C(=O)c1ccc(N2CCC(C)CC2)c([N+](=O)[O-])c1,2.3%
O=C1C=C(NCCc2ccccc2)C2(CCCCC2)O1,1.2%

Two entries from above in another layout:
> COc1ccc(NC(=O)/C(=C\c2ccc(OS(=O)(=O)c3ccc(C)cc3)cc2)NC(=O)c2ccccc2)cc1
  VDR inhibitor = 16.5%
> CN1CCc2nc(NC(=O)c3cccc(S(=O)(=O)N4CCc5ccccc54)c3)sc2C1
  VDR inhibitor = -17.1%

Next compounds follow:
molecule,VDR inhibitor
CC(=O)NC1C(=O)N=C(SCC(=O)Nc2sc3c(c2C#N)CCCCCC3)NC1=O (stereo not given),-12.9%
COC(=O)[C@H]1C[C@@H]1[C@H](NC(=O)c1cc(C)on1)c1ccccc1,9.6%
Cn1cnnc1SCc1ccc(F)c2ccccc12,6.4%
CCOC(=O)CC(=O)CSc1nc2c(sc(=S)n2-c2ccc(C)c(C)c2)c(=O)[nH]1,-15.1%
CC1CC1C(=O)OCC(=O)NCc1ccc(Cl)cc1Cl (stereo not given),-13.7%
COc1ccccc1C(=O)N/N=C1/NC(=O)CC(C(=O)Nc2ccccc2)S1 (stereo not given),-19.9%
COc1ccc(C)cc1NC(=O)C1CCN(C(=O)Cc2ccccc2)CC1,7.8%
CN1CCC(OC(=O)c2ccc(Br)cc2)CC1,5.9%
COc1ccc(OC)c(-c2nn(-c3ccccc3)cc2C(=O)NCC(c2cccs2)N2CCOCC2)c1 (stereo not given),-11.8%
COc1ccc(C(=O)n2c(N)nc3ccccc32)cc1OC,-14.3%
Cc1cc(=O)oc2cc3oc(=O)cc(C)c3cc12,-5.3%
CCN(CC)CCNc1nc2c(c(=O)[nH]c(=O)n2C)n1CCCc1ccccc1,1.1%
CC(C)=C(NC(=O)c1ccccc1)C(=O)N/N=C(\C)c1ccccc1O,-10.8%
Cc1ccc(C(=O)c2ccccc2C(=O)O)s1,8.6%
CC(C)CCC[C@@H](C)[C@H]1CC[C@H]2[C@@H]3CC=C4C[C@@H](O)CC[C@]4(C)[C@H]3CC[C@]12C,3.3%

(listing goes on)
molecule,VDR inhibitor
CCOC(=O)C1CCCN(CCC(=O)Nc2ccc(Br)c(C)c2)C1 (stereo not given),-5.5%
O=C(NCC1CCCO1)c1ccccc1NC(=O)c1cccc2ccccc12 (stereo not given),-7.7%
CCC(C)C(=O)OC1CCC=C2C=CC(C)C(CCC3CC(O)CC(=O)O3)C21 (stereo not given),1.1%
O=C(CSc1nnnn1-c1cccc(O)c1)NC1CC1,-8.5%
CC(C)(C)S(=O)N1Cc2ccc(CO)cc2[C@@H]1CCO (stereo not given in full),9.1%
CNC(=O)C1CCC(Cn2c(=O)c3sccc3n(Cc3ccc(F)cc3)c2=O)CC1 (stereo not given),-4.1%
COc1cccc(-c2ncc3ccccn23)c1,-8.2%
CNS(=O)(=O)c1cccc(C(=O)OCC(=O)c2ccc3c(c2)OCCO3)c1,-6.2%
O=C(Cc1ccccc1Cl)c1ccccc1,6.2%
CCN(C(=O)COC(=O)C1CCC(C(C)(C)C)CC1)c1c(N)n(Cc2ccccc2)c(=O)[nH]c1=O (stereo not given),-7.3%
NC(=O)C1CCN(C(=O)CSc2nc3ccccc3[nH]2)CC1,-11.6%
CCN(Cc1ccccc1)S(=O)(=O)c1cc(C(=O)OC)n(C)c1,0.5%
CCC(=O)C1CCCN(C(=O)c2cccc(OC3CCN(S(C)(=O)=O)CC3)c2)C1 (stereo not given),-8.9%
COc1ccc(S(=O)(=O)N2CCCN(S(=O)(=O)c3ccc(OC)cc3C)CC2)c(C)c1,11.1%
Cc1ccc(/C=C/c2onc(C)c2S(=O)(=O)N2CCC(C(=O)N3CCCCC3)CC2)cc1,0.9%

Later entries.
molecule,VDR inhibitor
Cc1cc(Sc2ccc([N+](=O)[O-])cn2)ccc1Br,-23.6%
O=C(CN1C(=O)/C(=C/c2cccc(Br)c2)SC1=S)N1CCCC1,-7.9%
Cc1ccc(COC(=O)Cc2coc3cc(O)ccc23)cc1,2.3%
CN(CCc1cn[nH]c1)Cc1nc(Cc2ccccc2)no1,-0.5%
Cc1noc(C)c1C(=O)N1CCC[C@@]2(CCN(C(=O)Nc3ccccc3)C2)C1,9.4%
O=C1CCCC2=C1C(c1ccco1)Nc1ccc(C(=O)c3ccccc3)cc1N2 (stereo not given),-1.5%
Cc1ccc(C(=O)Nc2nc3ccccc3[nH]2)cc1,5.1%
CS(=O)(=O)c1ccc(C(=O)Nc2ccc(N3CCCC3)cc2)c(Cl)c1,-4.3%
CN(C)C(=O)c1ccc(-c2cncnc2N2CCNCC2)cc1,-2.9%
Cc1ccc2c(c1)C(CCN)C(=O)N2Cc1ccccc1 (stereo not given),-14.7%
O=C(CSc1ccc(F)cc1)Nc1ccc(N2CCOCC2)c(Cl)c1,-9.5%
COc1ccc(OCC(=O)Nc2ccc3c(c2)nc(CCN2CCCCC2)n3C)cc1,-0.1%
COc1cc(CO)ccc1OCC(=O)N1CCc2ccccc21,2.0%
Cc1ccc(NC2CCCN(C(=O)c3cccs3)C2)cc1C (stereo not given),12.9%
Cc1cc(C)cc(Oc2ccccc2C=O)c1,8.1%

An excerpt of these results, with each value named:
> Cc1ccc(C(=O)Nc2nc3ccccc3[nH]2)cc1
  VDR inhibitor: 5.1%

> CS(=O)(=O)c1ccc(C(=O)Nc2ccc(N3CCCC3)cc2)c(Cl)c1
  VDR inhibitor: -4.3%

> CN(C)C(=O)c1ccc(-c2cncnc2N2CCNCC2)cc1
  VDR inhibitor: -2.9%

> Cc1ccc2c(c1)C(CCN)C(=O)N2Cc1ccccc1 (stereo not given)
  VDR inhibitor: -14.7%

Continuation:
molecule,VDR inhibitor
COc1ccccc1CNC(=O)CS(=O)Cc1nc(-c2ccc(OC)c(OC)c2)oc1C (stereo not given),-19.7%&-10.9%
CC1=C(C(=O)Nc2ccc(Cl)cc2)C(c2ccccc2F)n2nc(SCc3cccc(Cl)c3)nc2N1 (stereo not given),-23.0%
CCOC(=O)Cn1c(=NC(=O)C2COc3ccccc3O2)sc2cc(S(N)(=O)=O)ccc21 (stereo not given),-27.1%
CCc1noc(C)c1C(=O)N(Cc1ccccc1)c1c(N)n(CCOC)c(=O)[nH]c1=O,-1.6%
CN(C(=O)COC(=O)c1cc(F)c(F)cc1Cl)c1ccccc1,3.5%
Cc1nc2ccc(NC(=O)c3cccs3)cc2c(=O)n1Cc1ccc(Cl)cc1,6.6%
Cn1c(SCC(=O)Nc2cccc(Br)c2)nnc1-c1cc2ccccc2o1,-8.6%
O=C(CCS(=O)(=O)c1ccc2c(c1)NC(=O)CS2)NCc1cccs1,-8.2%
CCCOc1ccccc1NC(=O)/C=C/C(N)=O,3.6%
COC(=O)[C@@H](NC(=O)N1CCN(C(=O)C2COc3ccccc3O2)CC1)C(C)C (stereo not given in full),-3.7%
CCCCNC(=O)N1c2ccccc2CC1C (stereo not given),15.9%
O=C(NCc1cccc(Cl)c1)c1ccc2nc(N3CCOCC3)sc2c1,-24.4%
CCCn1c2ccccc2c2cnn(CC(=O)NCCCN(Cc3ccccc3)C(C)C)c(=O)c21,1.3%
Cc1[nH]c(=O)c(C#N)c(C)c1CCC(=O)NCc1cccc(C(F)(F)F)c1,-10.3%
CCCCCc1ccc(C)cc1O,7.4%

Next entries
molecule	VDR inhibitor
CCOC(=O)c1nnn(-c2nonc2N)c1COc1ccc(F)cc1	5.8%
CCOC(=O)c1cc2c(=O)n3ccccc3nc2n(CC2CCCO2)c1=NC(=O)c1cccc(C(F)(F)F)c1 (stereo not given)	-20.4%
O=C(Nc1cccc(F)c1)c1ccc(S(=O)(=O)NCC2CCCO2)cc1 (stereo not given)	13.9%
CCc1cc(=O)[nH]c(SCC(=O)Nc2ccc3c(c2)OCCO3)n1	-7.2%
S=c1[nH]nc(-c2ccncc2)n1/N=C/c1ccccc1Cl	-13.0%
COc1ccccc1N1CC(O)=C(c2nc3ccccc3c(=O)[nH]2)C1=N	-7.7%
COc1ccc(CC(=O)NCc2nnc(SCC(=O)Nc3nccs3)n2-c2ccccc2)cc1	-15.8%
O=C(NNC(=O)c1ccccc1C(=O)O)c1ccc(O)cc1	-9.7%
O=c1[nH]c(/C=C\c2ccc(O)cc2)nc(O)c1[N+](=O)[O-]	-25.9%
COc1cccc(C(=O)N[C@@H](CCSC)c2nc3ccccc3[nH]2)c1	12.0%
Cc1ccsc1/C=N/NC(=O)C(N)=O	-11.6%
COc1ccc(Br)cc1/C=N/n1c(C)nnc1C	-1.1%
CN(C(=O)/C=C/c1ccccc1)C1CCCCC1	10.2%
O=c1cc(CN2CCN(S(=O)(=O)c3ccc4ccccc4c3)CC2)nc2sccn12	-6.0%
CCCCCC(=O)c1c(O)cc(OC)c(Cl)c1O	2.8%
O=C(Cc1c(F)cccc1Cl)NNC(=O)c1ccc(Br)s1	19.0%
COc1ccc(OCC(O)CNS(=O)(=O)c2cccc(Cl)c2)cc1 (stereo not given)	-2.0%
CSc1ccc(-c2nc3cccc(C)n3c2Nc2ccc(Cl)cc2)cc1	-2.0%
CC1CCCCC12NC(=O)N(CC(=O)N1CCN(S(=O)(=O)Cc3ccccc3)CC1)C2=O (stereo not given)	-12.4%
O=c1c2c3c(sc2ncn1/N=C/c1cccnc1)CCCC3	1.5%
COc1cc(NC(=O)NCc2ccco2)ccc1-c1ccc(NC(=O)NCc2ccco2)cc1OC	-4.1%
O=C(CSc1nnc(C2COc3ccccc3O2)o1)N1CCCC1 (stereo not given)	?
CC1=NN(C(=O)COc2ccc(C)c(C)c2)C(O)(c2ccc(Cl)cc2)C1 (stereo not given)	-2.5%
COc1ccc(C(=O)N=C2SC3CS(=O)(=O)CC3N2c2ccccc2)cc1OC (stereo not given)	-5.6%
COC(=O)[C@@H](NC(=O)Nc1ccc(OC(F)(F)F)cc1)C(C)C	-6.3%

(continued)
molecule	VDR inhibitor
CCCc1cc(=O)oc2c3c(cc(OCC(=O)NCCCn4ccnc4)c12)OC(C)(C)CC3	-13.8%
CC(C)(C)C(=O)Nc1c(Cl)cccc1OC(F)(F)F	4.6%
CCOC(=O)Cc1csc(N/N=C\c2ccc(N(C)C)cc2)n1	29.5%
C/C(=N\NC(=S)NCCc1ccccc1)c1ccc(O)cc1O	2.7%
COc1ccc(N(CC(=O)NCCSCc2ccco2)S(=O)(=O)c2ccccc2)cc1	5.5%
CCOC(=O)c1cc(CC)sc1NC(=O)c1cc(OC)c(OC)c(OC)c1	2.0%
COc1cccc(Cn2cccc(NC(=O)Nc3ccc(C#N)cc3)c2=O)c1	-12.1%
Cc1c(C(=O)OC(C)C)sc2nc[nH]c(=O)c12	6.8%
Cc1ccc(C(=O)O/N=C(/c2nonc2N)N(C)C)cc1	5.5%
CCc1ccc(NC(=O)COC(=O)CCC2CCCC2)cc1	-1.1%
O=C(O)c1ccc(CN(c2ccccc2)S(=O)(=O)c2ccccc2)cc1	-10.5%
O=S(=O)(NCCSc1nnc(-c2ccco2)n1-c1ccccc1)c1ccccc1	5.8%
N#Cc1ccccc1S(=O)(=O)N1CCN(C(=O)CCc2ccccc2)CC1	-18.9%
CC(C)N(Cc1ccccc1)C(=O)c1cccs1	-13.8%
O=C(CCNS(=O)(=O)c1ccccc1)N1CCCCCC1	-20.1%
O=C(COC(=O)c1ccc(Cl)cc1)NC(=O)NC1CCCC1	-3.0%
Cc1ccccc1NC1=C(Cl)C(=O)OC1OC(=O)c1ccccc1C (stereo not given)	-6.4%
O=C(CSc1cccc2cccc(Cl)c12)OCC(=O)N1CCN(C(=O)c2ccco2)CC1	18.0%
Cc1nc(N2CCN(S(=O)(=O)c3ccccc3)CC2)c2cc(-c3ccccc3)sc2n1	-6.1%
CC(/C=C1\SC(=S)N(CCC(=O)Nc2nc(C)cs2)C1=O)=C\c1ccccc1	11.4%
CC(C)(C)OC(=O)N1CCC(NC(=O)c2nc[nH]c2C(=O)NCc2ccccc2)CC1	-9.0%
COc1cc(CN2CCC(C(=O)N3CCN(c4ccccc4F)CC3)CC2)cc(OC)c1O	-8.4%
CCOc1cc(C2C(C#N)=C(N)OC3CCCC(=O)C32)ccc1OCCN1CCOCC1 (stereo not given)	-1.3%
O=S(=O)(NCC1CC1)c1cc(Cl)cc(Cl)c1	4.4%

High-throughput results from PubChem.
